High-throughput results from PubChem BioAssay.
DUX4 inh: inhibitors of DUX4-driven ZSCAN4 reporter expression, primary screen, 293T cells, Gaussia and Italica luciferase; 293T-iDUX4 ZSCAN4-Gaussia luciferase reporter, 24 h; stronger effect = lower value; activity change, negative = inhibition, % (no concentration beside the values); 37,000 compounds, 0.8% hits; AID 1224904, 2016;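 active means -10% or lower and over 25 points stronger than a control reporter; inconclusive means -10% or lower with a smaller gap; inactive means above -10%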;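 further: 0% = median of neutral control wells and -100% = median of positive control wells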
DUX4 inh difference: further read-out of DUX4 inh, marked with its call; Gaussia minus Italica difference, %; measured here: selective DUX4 reporter inhibition;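 worked out from the two reporters; negative = selective loss of the DUX4 reporter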
DUX4 inh control: also measured in DUX4 inh; calls as there; activity change, negative = inhibition, %; measured here: Italica tet-on control reporter;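 0 = neutral control and -100 = positive control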
Starred values were filed as active, the others as inactive; ? = inconclusive; / = no result given; & = joins results of further samples. Only part of the results is shown. The share of hits here may be higher or lower than overall.

SMILES	DUX4 inh	DUX4 inh difference	DUX4 inh control
Cc1cccc(-c2ccc([C@H]3[C@H]4CN(C(=O)c5ccccc5)CC(=O)N4[C@H]3CO)cc2)c1	-7	-1	-5.8
O=C(C[C@@H]1CC[C@H]2[C@@H](COC[C@H](O)CN2C(=O)Nc2ccc(Cl)c(Cl)c2)O1)NCc1ccncc1	-5	-5	-0.3
CCC(=O)N1C[C@@H](O)COC[C@H]2O[C@H](CC(=O)NCC3CCCCC3)CC[C@@H]21	2	2	0.3
O=C(C[C@@H]1C[C@H]2c3cc(NC(=O)CC4CC4)ccc3O[C@H]2[C@H](CO)O1)NCCN1CCCCC1	-1	-5	4.9
CCCNC(=O)c1cc2c(c(-c3cccc(-c4ccncc4)c3)n1)[C@H](CCO)N(S(=O)(=O)CC)C2	3	2	1.3
CNC(=O)C[C@H]1CC[C@@H]2[C@@H](COc3ccc(NC(=O)c4ccccc4F)cc3C(=O)N2C)O1	-1	-1	0.6
N[C@H]1CC[C@H](CCn2cc(C3CCCCC3)nn2)O[C@@H]1CO	-3	3	-5.1
COc1ccc(C#Cc2ccc([C@H]3[C@H]4CN(C(=O)Nc5cccc(F)c5)CCCCN4[C@H]3CO)cc2)cc1	22	39	-17
CC=Cc1ccc2n(c1=O)C[C@H]1[C@H](CO)[C@@H](C(=O)NCCC)N(C(=O)CC)[C@@H]21 (mixture of isomers)	3	2	1.0
COc1ccc(CNC(=O)C[C@@H]2C[C@@H]3c4cc(NC(=O)NC5CCCC5)ccc4O[C@@H]3[C@H](CO)O2)cc1	14	0	14
C[C@@H]1CN([C@H](C)CO)C(=O)Cc2cc(NC(=O)CCN3CCOCC3)ccc2O[C@@H]1CN(C)Cc1ccc(C(=O)O)cc1	-2	-1	-0.4
O=C(C[C@@H]1CC[C@@H]2[C@H](COC[C@@H](O)CN2Cc2ccc(C(F)(F)F)cc2)O1)NCCc1ccccc1	0	-4	3.7
Cc1cc(C(=O)Nc2ccc3c(c2)C(=O)N(C)[C@@H]2CC[C@H](CC(=O)N[C@H](C)c4ccccc4)O[C@H]2CO3)no1	0	-4	3.7
O=C(C[C@@H]1CC[C@@H]2[C@H](COC[C@@H](O)CN2Cc2ccc(Oc3ccccc3)cc2)O1)Nc1nccs1	?	/	/
CCCN1[C@@H]2Cn3c(cccc3=O)[C@H]1[C@@H](C(=O)NC1Cc3ccccc3C1)[C@@H]2CO	-5	-8	3.1
C[C@@H]1CCCCO[C@@H](CN(C)Cc2ccc(Cl)c(Cl)c2)[C@@H](C)CN([C@@H](C)CO)C(=O)c2cc(NS(=O)(=O)c3cccs3)ccc2O1	1	4	-3.3
COc1ccc(C[C@H]2CCn3cc(nn3)COC[C@@H](C)NC2=O)cc1	3	5	-2.0
CN(C)C(=O)c1ccc(-c2ccc3c(c2)[C@@H]2[C@@H](CCN2C(=O)c2ccccc2F)[C@@H](CO)N3)cc1	?	/	/
COCC(=O)Nc1ccc2c(c1)C(=O)N(C)[C@H]1CC[C@H](CC(=O)N3CCc4ccccc4C3)O[C@@H]1CO2	-1	0	-1.3
COCC(=O)Nc1ccc2c(c1)C(=O)N(C)[C@H]1CC[C@H](CC(=O)O)O[C@@H]1CO2	1	-1	2.2
CNC[C@@H]1Oc2c(NC(=O)c3nc4ccccc4s3)cccc2C(=O)N([C@H](C)CO)C[C@@H]1C	3	5	-2.4
CCC(=O)N1CC(=O)N2[C@H](CO)[C@H](c3ccc(-c4ccncc4)cc3)[C@@H]2C1	12	10	1.7
CC(C)OC(=O)N(C)C[C@H]1OCc2ccccc2-c2ccccc2C(=O)N([C@@H](C)CO)C[C@@H]1C	1	-7	7.9
CCC(=O)N1[C@H](CO)[C@H](c2ccccc2)[C@@H]1CN(CC1CC1)S(C)(=O)=O	1	1	0.4
CCC(=O)N1C[C@@H]2[C@H](c3ccccc31)[C@@H](CO)N2C(=O)Nc1ccccc1F	-2	-4	1.9

Compound profiles, as listed above:
CCCNC(=O)c1cc2c(c(-c3cccc(-c4ccncc4)c3)n1)[C@H](CCO)N(S(=O)(=O)CC)C2 across the screens: DUX4 inh = 3; DUX4 inh difference = 2; DUX4 inh control = 1.3
CC=Cc1ccc2n(c1=O)C[C@H]1[C@H](CO)[C@@H](C(=O)NCCC)N(C(=O)CC)[C@@H]21 (mixture of isomers) across the screens: DUX4 inh = 3; DUX4 inh difference = 2; DUX4 inh control = 1.0

Other structures follow:
SMILES	DUX4 inh	DUX4 inh difference	DUX4 inh control
COc1cccc(-c2ccc([C@@H]3[C@H](CO)N4CCCCN(C(=O)NC(C)C)C[C@@H]34)cc2)c1	9	6	3.2
CNC[C@@H]1Oc2c(NS(=O)(=O)c3ccc(Cl)cc3)cccc2C(=O)N([C@@H](C)CO)C[C@H]1C	-4	0	-3.7
CCCNC(=O)N1CC2(C1)CN(C(C)=O)[C@@H](CO)c1[nH]c3cc(OC)ccc3c12	10	8	1.8
O=C(C[C@@H]1C=C[C@@H](NC(=O)c2ccc(F)cc2)[C@@H](CO)O1)NCCc1ccncc1	6	5	0.6
CN(C)CC(=O)N[C@@H]1CC[C@H](CC(=O)NCCN2CCCCC2)O[C@H]1CO	-3	-3	0.3
O=C(Nc1ccccc1)N1C[C@H]2[C@@H](c3ccccc31)[C@@H](CO)N2Cc1ccccc1Cl	0	-1	1.2
O=C(Cc1ccccn1)N1CC(=O)N2[C@H](CO)[C@@H](c3ccc(C#CCC4CCCC4)cc3)[C@H]2C1	-10	9	-19
O=C1C[C@@H](c2ccccc2)C(=O)N[C@H](c2ccc3c(c2)OCO3)C/C=C\C[C@@H](c2ccc(F)cc2)N1	3	3	0.9
CN1c2ccc(-c3cccc(F)c3)cc2[C@@H]2[C@@H](CCN2C(=O)Cc2cccnc2)[C@H]1CO	-9	-14	4.3
CCS(=O)(=O)N1CCCCN2[C@H](CO)[C@H](c3ccc(-c4ccc(C(=O)N(C)C)cc4)cc3)[C@@H]2C1	14	22	-7.8
CC=Cc1ccc2n(c1=O)C[C@H]1[C@H](CO)[C@@H](C(=O)NCC(F)(F)F)N(CCc3ccccc3)[C@@H]21 (mixture of isomers)	-3	1	-4.1
CN1c2ccc(-c3cccc(F)c3)cc2[C@H]2[C@H](CCN2C(=O)c2ccccc2F)[C@H]1CO	-45*	-34*	-11*
Cc1ccc(S(=O)(=O)N(C)C[C@@H]2Oc3ccc(NC(=O)CCCN(C)C)cc3C(=O)N([C@@H](C)CO)C[C@@H]2C)cc1	-1	-2	0.9
O=C(Nc1ccccc1F)N1C[C@@H]2[C@H](c3ccccc31)[C@@H](CO)N2C(=O)Cc1ccccc1	4	1	2.8
CC(=O)NC[C@H]1[C@H](c2ccc(-c3cccc(F)c3)cc2)[C@H](CO)N1C(C)=O	-1	-5	4.0
OC[C@H]1[C@@H](c2ccc(C#CC3(O)CCCC3)cc2)[C@@H]2CN(Cc3cncnc3)CCCCN12	-2	-14	13
COCC(=O)Nc1ccc2c(c1)[C@@H]1C[C@H](CC(=O)N3CCc4ccccc4C3)O[C@@H](CO)[C@@H]1O2	-2	1	-3.4
C[C@@H]1CCCCO[C@@H](CN(C)C(=O)Nc2ccc3c(c2)OCO3)[C@H](C)CN([C@@H](C)CO)C(=O)c2cc(NS(=O)(=O)c3ccc(F)cc3)ccc2O1	5	3	2.2
CCC(=O)N1[C@@H](CO)[C@@H](c2ccc(-c3ccc(F)cc3)cc2)C12CN(C(C)=O)C2	-3	-2	-1.5
O=C(NC1CCCC1)N1[C@@H]2CNC[C@H]1C2c1ccc(-c2cccnc2)cc1 (stereo partly drawn)	9&15	5&1	4.0&14
C[C@@H]1CN([C@@H](C)CO)C(=O)c2cc(NC(=O)c3ccncc3)ccc2O[C@@H](C)CCCCO[C@H]1CN(C)C(=O)C1CCCCC1	-5	-2	-3.4
O=C(C[C@@H]1CC[C@@H]2NC[C@@H](O)COC[C@H]2O1)NCCN1CCCCC1	-1	-11	10
C[C@@H]1CN([C@@H](C)CO)C(=O)c2ccccc2-c2ccccc2CO[C@@H]1CN(C)Cc1cccc(C(F)(F)F)c1	-63*	-35*	-28*
Cc1noc(C)c1S(=O)(=O)Nc1cccc2c1O[C@H](CN(C)Cc1ccc(C(F)(F)F)cc1)[C@H](C)CN([C@H](C)CO)C2=O	2	1	1.2
O=C(C1CCOCC1)N1CC(=O)N2[C@H](C1)[C@@H](c1ccc(C#CC3CCCCC3)cc1)[C@@H]2CO	-3	0	-2.9

New compounds follow.
SMILES	DUX4 inh	DUX4 inh difference	DUX4 inh control
O=C(C[C@H]1CC[C@@H]2[C@H](COC[C@@H](O)CN2Cc2ccc(Oc3ccccc3)cc2)O1)N1CCCCC1	-9	-8	-0.4
CCS(=O)(=O)N1CCCCN2[C@@H](CO)[C@H](c3ccc(C#CC(C)(C)O)cc3)[C@@H]2C1	18	13	4.8
O=C(C[C@H]1CC[C@@H]2[C@H](COC[C@H](O)CN2Cc2cc(F)cc(F)c2)O1)NC1CCCC1	0	-1	1.8
CC(C)NC(=O)N1CC[C@@H]2[C@H]1c1cc(-c3ccc(F)cc3)ccc1N(C)[C@H]2CO	-8	-3	-5.0
COc1cccc(NC(=O)N2C[C@H](O)COC[C@H]3O[C@H](CC(=O)NC4Cc5ccccc5C4)CC[C@@H]32)c1	5	6	-0.7
CCNC(=O)C[C@@H]1CC[C@@H]2[C@H](COc3ccc(NC(=O)c4ccc(C(F)(F)F)cc4)cc3C(=O)N2C)O1	4	2	1.4
C[C@H]1CN([C@@H](C)CO)C(=O)c2ccccc2-c2ccccc2CO[C@@H]1CN(C)Cc1ccc(C(=O)O)cc1	14	15	-1.1
COCC(=O)N1CC2(C1)CN(C(=O)CN1CCOCC1)[C@@H](CO)c1c2c2ccc(OC)cc2n1C	18	11	6.8
C[C@H](CO)N1C[C@H](C)[C@@H](CN(C)Cc2ccccc2)OCCCC[C@H](C)Oc2ccc(NC(=O)Nc3ccc(F)cc3)cc2C1=O	-3	-1	-1.8
COc1ccccc1CNC(=O)C[C@@H]1CC[C@@H]2[C@H](COc3ccc(NS(=O)(=O)c4ccc(C)cc4)cc3C(=O)N2C)O1	-7	7	-14
O=C(C[C@@H]1C[C@H]2c3cc(NC(=O)Nc4ccccc4F)ccc3O[C@H]2[C@H](CO)O1)NCc1ccc(Oc2ccccc2)cc1	?	/	/
CN1C(=O)c2cc(NS(=O)(=O)c3ccc(F)cc3)ccc2OC[C@@H]2O[C@@H](CC(=O)NCC(F)(F)F)CC[C@H]21	13	21	-7.9
CCC(=O)N1[C@@H](CO)[C@@H](c2ccccc2)[C@@H]1CN(CC)C(=O)c1ccc(F)cc1	0	0	-0.5
CCCN1[C@H](C(=O)NCC)[C@@H](CO)[C@@H]2Cn3c(ccc(-c4ccccc4F)c3=O)[C@@H]21	-5	-6	1.4
Cc1ccc(S(=O)(=O)N(C)C[C@@H]2OCCCC[C@H](C)Oc3ccc(NC(=O)c4ccncc4)cc3C(=O)N([C@@H](C)CO)C[C@H]2C)cc1	-2	-7	5.6
COc1ccc(S(=O)(=O)N2C[C@H](O)COC[C@H]3O[C@H](CC(=O)NCc4ccc(Cl)c(Cl)c4)CC[C@@H]32)cc1	?	/	/
CC(=O)N(C)C[C@H]1[C@@H](c2ccc(-c3cccc(C#N)c3)cc2)[C@@H](CO)N1C(C)=O	2	-1	3.2
OC[C@H]1Nc2ccc(-c3cccc(F)c3)cc2[C@@H]2[C@H]1CCN2Cc1ccc(F)cc1	-24*	-26*	1.2*
C[C@H]1CN([C@@H](C)CO)S(=O)(=O)c2ccc(C#Cc3ccccc3F)cc2O[C@H]1CN(C)C(=O)Cc1cccnc1	0	2	-1.9
COCC#Cc1ccc([C@H]2[C@@H](CO)N3C(=O)CN(C(=O)CN4CCOCC4)C[C@@H]23)cc1	12	-3	15
COc1ccccc1-c1ccc2c(c1)[C@H]1[C@H](CCN1S(=O)(=O)c1ccc(C)cc1)[C@@H](CO)N2	?	/	/
N#C[C@@H]1[C@H](c2ccccc2)[C@@H](CO)N1C(=O)Nc1cccc(F)c1	-1	0	-1.1
CCC(=O)N[C@H]1CC[C@H](CC(=O)NCC2CC2)O[C@H]1CO	5	7	-2.1
Cc1noc(C)c1S(=O)(=O)Nc1ccc2c(c1)C(=O)N([C@H](C)CO)C[C@@H](C)[C@@H](CN(C)Cc1ccc(C(=O)Nc3ccccc3N)cc1)O2	-6	1	-7.0
C[C@H]1CN([C@@H](C)CO)C(=O)c2cccc(N(C)C)c2O[C@H]1CN(C)Cc1ccncc1	-2	0	-2.1
COc1ccc(C#Cc2ccc([C@@H]3[C@H]4CN(C(C)=O)CC(=O)N4[C@H]3CO)cc2)cc1	?	/	/
O=C(NCC1CC1)[C@H]1[C@H](CO)[C@H]2Cn3c(cccc3=O)[C@H]2N1Cc1cccc(F)c1	2	8	-6.1

Part of the list above in order of heavy-atom count, falling.
SMILES	DUX4 inh	DUX4 inh difference	DUX4 inh control
Cc1ccc(S(=O)(=O)N(C)C[C@@H]2OCCCC[C@H](C)Oc3ccc(NC(=O)c4ccncc4)cc3C(=O)N([C@@H](C)CO)C[C@H]2C)cc1	-2	-7	5.6
O=C(C[C@@H]1C[C@H]2c3cc(NC(=O)Nc4ccccc4F)ccc3O[C@H]2[C@H](CO)O1)NCc1ccc(Oc2ccccc2)cc1	?	/	/
COc1ccc(S(=O)(=O)N2C[C@H](O)COC[C@H]3O[C@H](CC(=O)NCc4ccc(Cl)c(Cl)c4)CC[C@@H]32)cc1	?	/	/
COCC(=O)N1CC2(C1)CN(C(=O)CN1CCOCC1)[C@@H](CO)c1c2c2ccc(OC)cc2n1C	18	11	6.8
CC(C)NC(=O)N1CC[C@@H]2[C@H]1c1cc(-c3ccc(F)cc3)ccc1N(C)[C@H]2CO	-8	-3	-5.0
CCC(=O)N[C@H]1CC[C@H](CC(=O)NCC2CC2)O[C@H]1CO	5	7	-2.1
